MT1-MMP reporter: inhibitors of MT1-MMP promoter transcription, cell-based, luciferase reporter, luminescence (AID 618); MT1-MMP promoter luciferase reporter cells, luminescence; calls from a first round at 10 µM; hits with a dose series show EC50 in µM; hit rate 0.62% among 87,000;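 active = over half of the reporter light lost at 10 µM or EC50 under 50 µM; inactive = the rest and hits that failed the dose series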;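 note: actives suppress MT1-MMP promoter-driven transcription so potencies describe inhibitors; HT1080 fibrosarcoma cells; overnight exposure; toxic or luciferase-blocking compounds were not removed from the actives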
Hsc70 ATP site: Hsc70 inhibitors, probe displacement, primary screen, biochemical, fluorescence polarization (AID 568) | displacement, % at 20 µM, or IC50 in µM where a hit was titrated | Hsc70 fluorescence polarization, probe displacement; higher % means a stronger effect; strong numbers were not always called active | Heat shock cognate 71 kDa protein (Homo sapiens) | 83,000 tested, under 10 active;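 active = displacement above 50% without optical interference and an IC50 on retest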;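 note: ATPase domain with a fluorescein-tagged ATP probe; 0% = vehicle and 100% = excess ADP; read after one hour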
WNV protease inh: inhibitors of WNV NS2B-NS3 protease, primary screen, biochemical, fluorogenic substrate; z-score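 (tested at a level between 10 and 100 µM)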; fluorogenic substrate Ex360/Em465; stronger effect = lower value; Genome polyprotein (West Nile virus), P06935; AID 577, 2007; hit rate 0.18% among 65,000;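 active = z-score at -3 or under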;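 note: score is relative to mean and spread of the compound wells of a plate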
Target sequence (P06935 1371-1501 limits assumed): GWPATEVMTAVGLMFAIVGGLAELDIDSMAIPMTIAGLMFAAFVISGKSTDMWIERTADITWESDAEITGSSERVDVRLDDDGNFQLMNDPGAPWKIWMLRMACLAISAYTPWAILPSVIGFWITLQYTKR
Target sequence (P06935 1502-1679 limits assumed): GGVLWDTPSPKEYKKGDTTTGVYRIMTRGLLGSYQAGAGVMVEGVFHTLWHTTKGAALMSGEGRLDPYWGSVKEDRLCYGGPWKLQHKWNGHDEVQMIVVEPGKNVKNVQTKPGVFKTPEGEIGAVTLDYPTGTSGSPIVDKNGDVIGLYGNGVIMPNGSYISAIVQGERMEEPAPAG
* = called active by the depositor; i = inactive; . = not tested or not shown; + = active, no number.

Values run as follows: MT1-MMP reporter | Hsc70 ATP site | WNV protease inh
(1) CC(=O)N1CCN(Cc2cc(=O)n3cc(Cl)c(C)c(Cl)c3n2)CC1
 : i | -1.9% | 0.62
(2) CCOC(=O)CSC1=C(C#N)C(c2ccc(C)cc2)C(C(=O)OC)C(=O)N1 (stereo unspecified)
 : i | -5.4% | 1.02
(3) COC1(c2ccccc2)NC(=S)NN=C1c1ccccc1 (stereo unspecified)
 : i | 3.6% | .
(4) CCOc1cccc(NC(=O)C2CC(=O)N(C)C(=Nc3ccccc3)S2)c1 (stereo unspecified)
 : i | -3.3% | 0.77
(5) O=C(c1cc(-c2ccccc2)on1)N1CCN(C(=O)c2ccco2)CC1
 : i | 3.7% | -0.51
(6) CC1(C)CC(=O)C2=C(C1)N(Cc1ccccc1)C(=O)C2(O)C(F)(F)F (stereo unspecified)
 : i | -3.1% | .
(7) c1cc(CNC2=NCCCCC2)ccn1
 : i | 8.5% | -0.24
(8) Cc1ccc(C2CC(=O)NC3=C2C(=O)CCC3)cc1Br (stereo unspecified)
 : i | 8.9% | -2.7
(9) CC(=O)c1c(N2CCN(C(=O)c3ccco3)CC2)nc(=S)n(-c2ccccc2)c1C
 : i | 1.4% | 1.71
(10) COc1ccc(N2C(=O)CC(N3CCC(O)(c4cccc(C(F)(F)F)c4)CC3)C2=O)cc1 (stereo unspecified)
 : i | -2.0% | -0.27
(11) O=C(COc1ccc(Br)cc1)N1CCN(c2ccccc2)CC1
 : i | -2.6% | .
(12) COc1ccc(C(=O)O)cc1S(=O)(=O)N(C)CCc1cccnc1
 : i | -5.3% | 0.21
(13) COc1cc(Br)cc(/C=N/c2ncn[nH]2)c1O
 : i | 9.2% | -1
(14) c1ccc(CN2CCC(Nc3nc(-c4ccccc4)nc4ccccc34)CC2)cc1
 : i | 6.5% | .
(15) COc1ccccc1NC1=NCC(=O)N1Cc1ccccc1
 : i | -0.1% | -0.85
(16) Cc1cc(NC(=O)c2cc3ncc(Br)cn3n2)no1
 : i | -3.7% | 1.02
(17) O=C1CN(C(=O)COC(=O)COc2ccc3c(c2)CCC3)c2ccccc2N1
 : i | 2.3% | 0.12
(18) Cc1cnc(C(=O)N2CCN(S(=O)(=O)c3ccc4ccccc4c3)CC2)cn1
 : i | 2.8% | -1.52
(19) COc1cc2cc(CN(Cc3nnnn3Cc3ccccc3)CC3CCCO3)c(=O)[nH]c2cc1OC (stereo unspecified)
 : i | 2.4% | 1.31
(20) CCCC(c1nnnn1Cc1cccs1)N1CCN(c2ccc(OC)cc2)CC1 (stereo unspecified)
 : i | -3.0% | -0.92

Screen by screen, as entered above.
MT1-MMP reporter, entries 13–17: i, i, i, i, i
Hsc70 ATP site, entries 13–17: 9.2%, 6.5%, -0.1%, -3.7%, 2.3%
WNV protease inh, entries 13–17: -1, ., -0.85, 1.02, 0.12

(further entries)
Values run as follows: MT1-MMP reporter | Hsc70 ATP site | WNV protease inh
(21) COc1ccc(-c2cc(C(F)(F)F)n3ncc(C(=O)NCC4CCCO4)c3n2)cc1 (stereo unspecified)
 : i | 2.2% | -0.32
(22) CCC(C(=O)NC(C)(C)C)N(C(=O)Cn1nnc(-c2cccs2)n1)c1cnc2ccccc2c1 (stereo unspecified)
 : i | 0.2% | .
(23) CC1CN(Cc2nc3c(c(=O)[nH]c(=O)n3C)n2CC(N)=O)CC(C)O1 (stereo unspecified)
 : i | -0.1% | 0.22
(24) Cc1nn(-c2ccccc2)c(Cl)c1C(=O)N1CCN(c2ncnc3c2cnn3-c2ccccc2)CC1
 : i | 2.1% | 0.6
(25) COc1ccc(CNn2c(-c3cccc(C)c3)nc3ccccc3c2=O)cc1OC
 : i | -1.1% | .
(26) O=C(Cn1nc(Cl)nc1Cl)c1cc2ccccc2oc1=O
 : i | -3.1% | 0.27
(27) O=C(c1cnn2cccnc12)N1CCN(c2ccccc2)CC1
 : i | -2.1% | -0.03
(28) CCN(CC)C(=O)c1cn(C)c2ccc(S(=O)(=O)N(CC)CC)cc2c1=O
 : i | -1.6% | 0.28
(29) C1=C(CCNC2=NCCCCC2)CCCC1
 : i | 3.8% | -0.01
(30) O=S(=O)(c1ccc(S(=O)(=O)N2CCCC3(CCCCC3)C2)cc1)N1CCCCC1
 : i | -0.8% | -0.31
(31) Cc1c(NC(=O)c2ccccc2F)c(=O)n(-c2ccccc2)n1C
 : i | 1.7% | -0.7
(32) Cc1cc(C)cc(-c2nnc(SCC(=O)c3ccc4c(c3)OCCO4)o2)c1
 : i | 0.1% | .
(33) CCO/C([O-])=N/c1c[n+](N2CCOCC2)no1
 : i | 0.1% | 0.84
(34) Cc1ccc(-n2c(=O)cc(N3CC(C)CC(C)C3)[nH]c2=O)cc1 (stereo unspecified)
 : i | 9.4% | 0.69
(35) COCCn1c(SCc2nc3ccccc3s2)nc2ccccc21
 : i | 3.1% | -0.39
(36) CC1(C)Cc2c(C#N)c(OCC(=O)c3ccc(Cl)cc3)nc(-c3ccoc3)c2CO1
 : i | 3.1% | -0.37
(37) Cc1ccc(C)c(NC2=NCC(=O)N2c2ccc3c(c2)OCCO3)c1
 : i | 0.4% | .
(38) COc1ccc(Cc2nnc(SCC(=O)N3CCN(c4ccccc4)CC3)o2)cc1
 : i | 2.8% | 0.33
(39) CSC1=C(C#N)C(C)CC(=O)N1 (stereo unspecified)
 : i | -7.1% | -0.15
(40) CCO/C(C)=N/n1c2nc3ccccc3nc2c2c(=O)n(CC(C)C)c(C)nc21
 : i | -9.5% | -0.75

Continuation:
No.	smiles	MT1-MMP reporter	Hsc70 ATP site	WNV protease inh
41	COc1ccc(C(=O)NCCCN2CCOCC2)cc1OC	i	-1.2%	.
42	CCSc1nnc(NC(=O)CCn2c(=O)oc3ccccc32)s1	i	0.7%	2.42
43	COc1ccc(NC(=O)c2cc(-c3ccc(OC)c(OC)c3)on2)cc1OC	i	-3.0%	0.41
44	Cc1cc(N2CCCC2=O)cc(C)c1S(=O)(=O)NCCOc1ccccc1	i	2.4%	1.35
45	C=CCNC(=O)c1nc2ccccc2s1	i	3.3%	.
46	CCC(C)Sc1nc2c(cnn2-c2ccc(C)cc2)c(=O)[nH]1 (stereo unspecified)	i	6.4%	-0.87
47	CCOC(=O)CSC1=C(C#N)C(c2ccccc2Cl)C(C(=O)OC)C(=O)N1 (stereo unspecified)	i	1.0%	-0.58
48	O=C(O)CCCC(=O)NS(=O)(=O)c1ccc(Cl)cc1	i	2.6%	.
49	O=C(CSc1nnc(-c2ccco2)n1Cc1ccco1)NCc1cccs1	i	-0.6%	-1.01
50	Cc1ccc(N(CN2CCCC2=O)C(=O)c2ccc(C)c(C)c2)cc1	i	-4.4%	0.42
51	COC(=O)c1ccc(NC(=O)c2ccco2)cc1	i	0.0%	-0.99
52	C=C1c2ccc(C)cc2NC(=O)N1c1ccccc1	i	-5.8%	-0.32
53	Cc1ccc(S(=O)(=O)Nc2ccc3nc(N)sc3c2)cc1	i	1.9%	0.69
54	Nc1nonc1-c1noc(N2CCOCC2)n1	i	6.2%	0.37
55	Cc1ccc(/C=N/c2sc3c(c2C#N)CCC3)s1	i	1.7%	0.02
56	O=C1OC(C(=O)O)Cc2ccccc21 (stereo unspecified)	i	-3.2%	.
57	CCOC(=O)Cc1csc(SC(C)C(=O)Nc2ccc(NC(C)=O)cc2)n1 (stereo unspecified)	i	-1.4%	.
58	CCCCOc1ccc(CNC(=O)NS(=O)(=O)c2ccc(OCC)cc2)cc1	i	2.3%	.
59	O=C(CC(=O)NCc1cccnc1)NCc1cccnc1	i	-5.3%	0.22
60	COc1ccc(CNC(=O)c2ccc3c(c2)N(C)C(=O)CS3=O)cc1 (stereo unspecified)	i	0.5%	0.62
61	O=C(Cn1nc(-c2ccccc2F)ccc1=O)NCc1ccc2c(c1)OCO2	i	-0.8%	-1.02
62	CCCCOC(=O)Nc1cc(OC)c(Cl)cc1OC	i	5.3%	-0.76
63	CCN(CC)CCCN1C(=O)C(=O)/C(=C(/O)c2ccc3c(c2)OCO3)C1c1ccccn1 (stereo unspecified)	i	7.0%	0.41
64	COc1cc(-c2nnc(SC(C)C(=O)Nc3c(C)n(C)n(-c4ccccc4)c3=O)o2)cc(OC)c1OC (stereo unspecified)	i	3.4%	.
65	O=C(CCCn1c(=O)[nH]c2cc(Cl)ccc2c1=O)NC1CCCCCCC1	i	0.7%	.
66	CC(C)C[C@H](NC(=O)OC(C)(C)C)C(=O)N1CCC(C(=O)N[C@@H](Cc2ccccc2)C(=O)O)CC1	i	3.0%	-0.43
67	CN1C(=O)c2oc3ccc(Br)cc3c(=O)c2C1c1ccncc1 (stereo unspecified)	i	1.3%	1.71
68	Cc1ccc(C)c(Cn2nnc3c(=O)[nH]c(C(=O)NCc4ccco4)nc32)c1	i	-11.4%	-1.31
69	CS(=O)(=O)Nc1ccc2c(c1)C(=O)OC2	i	1.9%	-0.42
70	COc1cccc(-c2noc(-c3cccs3)n2)c1	i	4.7%	0.48
71	COc1cc2c(cc1OC)C(COc1ccc3c(C)cc(=O)oc3c1)N(C(=O)c1ccco1)CC2 (stereo unspecified)	i	0.2%	.
72	COc1cc(-c2nn3c(-c4cccc(C)c4)nnc3s2)cc(OC)c1OC	i	2.2%	-0.29
73	CCn1cc(C(=O)NCc2cccs2)c(=O)c2ccc(C)nc21	i	-3.6%	-0.67
74	CCCCSCc1ccc(C(=O)O)o1	i	4.6%	.
75	Cc1nc2cccc(C(=O)NC3CCCCC3)c2o1	i	10.0%	-0.2
76	O=C(Cn1cnc2ccccc2c1=O)c1ccccc1	i	4.9%	.
77	COc1cc(NC(=O)c2cccs2)c(C(=O)OCC(=O)NC(=O)NC(C)(C)C)cc1OC	i	0.3%	.
78	COc1ccc(C2=Nn3c(nnc3-c3ccccc3OC)SC2)cc1OC	+	7.8%	0.74
79	COc1ccc(-c2cn3cccnc3n2)cc1NC(=O)CC(C)C	i	8.8%	1.86
80	CCNC(=O)CN1C(=O)NC2(CCCCCC2)C1=O	i	-1.3%	.
81	CC(C)OC(=O)C1=C(N)N2C(=O)CSC2=C(C(=O)OC(C)C)C1	i	-2.0%	.
82	CCOC(=O)N1CCN(C(=O)Nc2ccc(Cl)cc2)CC1	i	-0.3%	-0.23
83	CCOc1cc(-c2c(C#N)c(N)nc3c2CCCC3C)ccc1O (stereo unspecified)	i	-12.2%	0.41
84	O=C(c1ccc(Cl)cc1)c1coc2ccc(O)cc12	i	4.6%	.
85	CCOc1ncccc1C(=O)OCc1cn2cc(Cl)ccc2n1	i	-1.9%	-0.66

Structural class: the compounds so far with an aryl thioether with sulfur outside any ring.
No.	smiles	MT1-MMP reporter	Hsc70 ATP site	WNV protease inh
32	Cc1cc(C)cc(-c2nnc(SCC(=O)c3ccc4c(c3)OCCO4)o2)c1	i	0.1%	.
35	COCCn1c(SCc2nc3ccccc3s2)nc2ccccc21	i	3.1%	-0.39
38	COc1ccc(Cc2nnc(SCC(=O)N3CCN(c4ccccc4)CC3)o2)cc1	i	2.8%	0.33
42	CCSc1nnc(NC(=O)CCn2c(=O)oc3ccccc32)s1	i	0.7%	2.42
46	CCC(C)Sc1nc2c(cnn2-c2ccc(C)cc2)c(=O)[nH]1 (stereo unspecified)	i	6.4%	-0.87
49	O=C(CSc1nnc(-c2ccco2)n1Cc1ccco1)NCc1cccs1	i	-0.6%	-1.01
57	CCOC(=O)Cc1csc(SC(C)C(=O)Nc2ccc(NC(C)=O)cc2)n1 (stereo unspecified)	i	-1.4%	.
64	COc1cc(-c2nnc(SC(C)C(=O)Nc3c(C)n(C)n(-c4ccccc4)c3=O)o2)cc(OC)c1OC (stereo unspecified)	i	3.4%	.

Remaining list, next part:
No.	smiles	MT1-MMP reporter	Hsc70 ATP site	WNV protease inh
86	Cc1cccc2cc(CN(Cc3ccccc3)C(=O)N(C)C)c(=O)[nH]c12	i	6.8%	-0.51
87	O=C(Oc1ccccc1)c1cccc(COC(=O)c2cnccn2)c1	i	-9.1%	0.01
88	N#Cc1c(NC(=O)c2cccnc2)sc2c1CCC2	i	-4.3%	.
89	c1ccc(-c2nc(N3CCCCC3)nc3ccccc23)cc1	i	1.5%	.
90	COc1ccc(C(=O)NCC(C)C)c(OC)c1	i	2.7%	.
91	O=C1c2oc3ccccc3c(=O)c2C(c2cccc(O)c2)N1c1ccccn1 (stereo unspecified)	i	3.0%	-0.67
92	COCCCn1c(SCC(N)=O)nnc1-c1ccccc1	i	4.7%	-1.05
93	O=C(NC1CCCC1)C(c1ccco1)N(Cc1ccccc1)C(=O)c1csnn1 (stereo unspecified)	i	0.2%	-0.56
94	CCOc1ccc(Nc2c3c(nc4ncnn24)CC(C)CC3)cc1 (stereo unspecified)	i	-11.9%	0.18
95	Oc1ccc(CN2CCCc3ccccc32)c2cccnc12	i	6.8%	0.43
96	CS(=O)(=O)N1CCCC(C(=O)NCCCN2CCC(Cc3ccccc3)CC2)C1 (stereo unspecified)	i	-0.2%	-0.02
97	O=C(CSc1nc2ccccc2s1)N1CCOCC1	i	2.1%	0.63
98	COc1cccc(CNc2ccc(Br)cn2)c1O	i	-0.3%	-0.02
99	CC(C)Sc1nc(NCc2ccco2)c2c3c(sc2n1)COC(C)(C)C3	i	-9.7%	-1.54
100	CCOC(=O)c1nc(N)c(=O)n(-c2ccccc2)n1	i	-3.3%	-0.08
101	COCCNC(=O)c1c[nH]c2ccc(S(=O)(=O)N3CCC4(CC3)OCCO4)cc2c1=O	i	2.2%	1.17
102	CCOc1ccc(-n2c(C)nc3c(cnn3-c3ccc(Cl)cc3)c2=O)cc1	i	5.6%	-0.13

These rows are one share of the data (hit frequency here may not be typical).
